# Assay outcomes: PubChem, National Center for Advancing Translational Sciences (NCATS)
# gsp antag: antagonists of gsp mutant (McCune-Albright syndrome); gsp-mutant cells, cAMP HTRF, 30 min; control for the full effect not named in the record; Potency, µM (top dose mostly 76.9 µM), for the others: at the highest dose activity change, negative = inhibition, actives largely listed as inhibitors; 340,000 tested, 0.4% active; active = falling curve of any shape with a large fitted effect; inconclusive = falling curve, mostly with a smaller effect; inactive = flat or rising curve; cell line not stated here;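 note: intracellular cAMP measured with PDE inhibitor Ro 20-1724 present during compound exposure; potency is the fitted concentration of half-maximal effect; % is set by controls: 0 for no effect and ±100 for the full control effect; nearly all actives have a fitted effect of over 65% in size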
#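 HTRF cAMP measurement after 30 min RT detection following 30 min, 37C compound treatment alongside […] (added as 300 uM solution) in G418-selected cells seeded at 2000/well and grown 16–24 h.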
# gsp ag: gsp mutant agonism | gsp mutant cells, cAMP HTRF, 30 min; control for the full effect not named in the record | Potency, µM (highest dose often 76.9 µM), for inactives: at the highest dose activation (cAMP increase), usual class: activators | 340,000 tested, 0.13% active; active = well fitted activation curve with a large enough effect; inconclusive = small, poorly fitted or top-dose-only effect, or another doubt; inactive = no such curve, though single readings can be large or run the other way; cell line not stated here;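 note: phosphodiesterase inhibitor Ro 20-1724 added with compounds to block cAMP breakdown; potency is the fitted concentration of half-maximal effect; nearly all actives have a fitted effect of over 60% in size; about a fifth of the inactives were tested at one dose only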
#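 Cells in DMEM/10% FBS with G418 were pretreated with compounds in DMSO plus […] (300 uM stock) for 30 min at 37C. cAMP was measured by HTRF (cAMP-d2 plus anti-cAMP antibody-K) after 30 min at room temperature.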
# D2 PAM: positive allosteric modulators of human D2 dopamine receptor. DiscoveRx D2 beta-arrestin cells, luminescence, 90 min; 100% = 57 uM dopamine signal. P14416. 360,000 tested, 0.23% active. potentiation, % (test concentration not listed); active = potentiation of 50% or more; inconclusive = 30% to 50%; inactive = 30% or less;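 note: compound concentration not given in the record; tested on top of an EC20 dose of dopamine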
# Target sequence (P14416 whole entry, looked up): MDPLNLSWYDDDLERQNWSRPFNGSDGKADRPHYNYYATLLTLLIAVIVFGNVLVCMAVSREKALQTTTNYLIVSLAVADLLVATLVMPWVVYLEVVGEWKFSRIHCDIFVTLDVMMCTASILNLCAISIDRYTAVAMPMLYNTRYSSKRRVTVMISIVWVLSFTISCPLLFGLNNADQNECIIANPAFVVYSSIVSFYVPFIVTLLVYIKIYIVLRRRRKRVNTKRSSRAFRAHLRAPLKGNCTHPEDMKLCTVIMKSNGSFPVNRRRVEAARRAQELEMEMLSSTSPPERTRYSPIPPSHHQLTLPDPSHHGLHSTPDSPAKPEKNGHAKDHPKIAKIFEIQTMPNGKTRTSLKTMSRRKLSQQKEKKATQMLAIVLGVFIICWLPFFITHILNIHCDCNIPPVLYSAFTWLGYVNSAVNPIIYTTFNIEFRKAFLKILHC
#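 PathHunter beta-arrestin assay in DiscoveRx D2 cells. Compounds were added with an EC20 of dopamine (50 nM final) for 90 min at 37 deg C. Luminescence was read 1 h after detection reagent, with 57 uM dopamine as the EC100 control.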
# Sfp PPTase inh: blocks B. subtilis Sfp PPTase activity; Q9F4F7; Biochemical Sfp PPTase activity, qHTS; Potency, µM, for the others: max response, negative = inhibition, actives largely listed as inhibitors; 310,000 tested, 3.5% active; AID 1490; active = well fitted inhibition curve with a large enough effect; inconclusive = small, poorly fitted or top-dose-only effect, or another doubt; inactive = no such curve, though single readings can be large or run the other way;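 note: the enzyme is Sfp with the accession as filed and its product quenches rhodamine fluorescence; potency is the fitted concentration of half-maximal effect; 0% = enzyme reaction without inhibitor and -100% = no enzyme wells; top concentration of the series not given in the record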
#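 Fluorescence-quenching assay with 15 nM Sfp, 5 uM rhodamine-CoA and 12.5 uM BHQ-2-labelled ybbR peptide in pH 7.6 Hepes/MgCl2 buffer. Enzyme was pre-incubated with compound for 15 min at room temperature. Rate was taken from the 30-min fluorescence change (525/598 nm).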
# ClpP mod: qHTS Assay for Activators of ClpP. purified B. subtilis ClpP, FRET peptide cleavage, 20 min. Potency, µM (titrated, usually from 57.5 µM), for inactives: at the top dose activity change, negative = active. 340,000 tested, 1.9% active; active = well fitted falling curve with a large enough effect; inconclusive = small, poorly fitted or top-dose-only effect; inactive = no such curve, though single readings can be large or run the other way; note: potency is the fitted concentration of half-maximal effect; the source files actives as falling curves though it sought activators and does not explain the sign; nearly all actives have a fitted effect of over 65% in size; many hits overshoot -100%
# Target sequence (P80244 whole entry, looked up): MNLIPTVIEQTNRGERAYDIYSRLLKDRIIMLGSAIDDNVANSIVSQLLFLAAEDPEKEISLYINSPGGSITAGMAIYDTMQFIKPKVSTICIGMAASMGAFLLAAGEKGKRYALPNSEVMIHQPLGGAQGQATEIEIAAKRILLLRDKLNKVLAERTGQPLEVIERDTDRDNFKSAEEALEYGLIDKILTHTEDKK
#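 FRET quenching reversal measured ClpP activation: 10 microg/mL B. subtilis ClpP at pH 8 with the FRET-FV decapeptide, read at 430 nm after 320 nm excitation. The 20-min minus 0-min signal was scaled between DMSO/no-enzyme wells and ADEP (5.8 microM final).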
# TRPV1 PAM: enhances activation of the human vanilloid receptor TRPV1 | TRPV1-expressing cells, Fluo-8 calcium influx, capsaicin EC20 potentiation; host cell line not named in the record; control for the full effect not named in the record | potentiation, % at 8.33 µM | AID 540277 | Q8NER1 | 320,000 tested, 0.02% active; active means potentiation above 80%; inconclusive means 30% to 80%; inactive means below 30%; note: 0% is about no effect
#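 Cells expressing TRPV1 were dye-loaded with Fluo-8 and read kinetically: 10 s baseline, 3 min after compound (agonist portion), then 2 min after EC20 capsaicin (allosteric enhancer portion). Calcium-bound dye fluorescence at 480/520 nm.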
# Menin-MLL FL inh: displaces fluorescein MLL peptide from human menin; 290,000 tested, under 10 active; FP activity change, % at 61.4 µM; Fluorescence polarization, fluorescein-MLL peptide displacement from menin; AID 1766; inconclusive = falling polarisation curve, or a change in total fluorescence; inactive = total fluorescence flat and polarisation flat or rising; no compound was filed as active; the % refers to the polarisation; negative = inhibition;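 note: % of control where 0% means no effect; inhibitors lower the polarisation; unlabelled MLL peptide was the positive control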
# * marks the source's active call; other numbers are inactive results; ? = inconclusive; . = not tested or not shown; & = joins results of further samples; [ ] = dose if it differs, or a comment.
SMILES,gsp antag,gsp ag,D2 PAM,Sfp PPTase inh,ClpP mod,TRPV1 PAM,Menin-MLL FL inh
CCOC(=O)c1c(NC(=O)CCN2C(=O)c3ccccc3C2=O)sc(C(=O)OC(C)C)c1C,17%,-23%,-1,-7%,1.0%,5,1.7
OCC1CCCCN1CCNCc1cn[nH]c1-c1cccc2ccccc12 (stereo not given),20%,8%,-11,11%,0.5%,11,3.6
COCCn1c(=NC(=O)CSC(C)=O)sc2cc(OC)ccc21,?,6%,-10,7%,-8.9%,9,1.6
O=C(CN1C2=NCCN2c2ccccc21)N1CCOCC1,5%,?,-2,13%,-2.1%,11,2.4
O=C(NC1CCCCCCC1)c1ccco1,5%,-6%,-13,11%,0.5%,-1,-0.3
Cc1csc(NC(=O)CCc2c(C)nc3cc(-c4cccc(F)c4)nn3c2C)n1,-10%,-13%,-8,23%,1.9%,-4,5.9
COc1ccc(N2CCN(C(=O)c3ccc(S(=O)(=O)NCc4ccco4)cc3)CC2)cc1,-5%,-38%[inhibitor],-3,.,-3.6%,13,.
O=[N+]([O-])c1cccc(N/N=C/c2cc([N+](=O)[O-])ccc2O)c1,?,-2%[15.4 µM],-15,-1%,.,2,-1.8
CN(C1CCS(=O)(=O)C1)S(=O)(=O)c1ccc(N2CCCC2=O)cc1 (stereo not given),3%,4%,3,11%,1.6%,3,-2.1
CC(OC(=O)c1ccc(NC(=O)CC#N)cc1)C(=O)Nc1ccc2c(c1)OCCO2 (stereo not given),11%,-39%,9,.,-2.6%,2,.
Cc1ccc2nc(Cl)c(/C=N/NC(=O)CN3CCOCC3)cc2c1,-1%,2%[15.4 µM],0,.,.,.,.
Cc1cc(C)c2c(n1)SCC(=O)N2CC(=O)Nc1cc(F)ccc1F,4%,-3%,-1,10%,2.2%,18,1.6
CN(C)c1cc(O)c(C(=S)Nc2ccccc2)c(N(C)C)c1,-36%,3%,-5,-17%,-0.8%,-2,3.7
CC(CN(C)Cc1ccccc1)OC(=O)c1ccc2c(c1)OCCO2 (stereo not given),4%,-21%,-39,0%,-3.0%,-9,4.7
O=C(Nc1nc(-c2ccncc2)cs1)c1ccc(S(=O)(=O)N2CCOCC2)cc1,-4%,-39%[inhibitor],21,-5%,4.3%,-29,2.4
CCOC(=O)c1cc2cc(C)ccc2[nH]1,-27%,-77%[inhibitor],1,17%,14µM*,3,16
COc1ccc(Sc2nc3ccccc3n3c(C(F)(F)F)nnc23)cc1,-14%,?,-20,1%,-22%,4,1.5
COc1cc(C(=S)N2CCCC2)cc(OC)c1O,13%,24%,-6,50µM*,0.8%,-10,-2.7
CCc1nnc(NC(=O)c2ccncc2)s1,-6%,6%,11,8%,0.2%,-4,-2.5
COc1ccc(OC)c(NC(=O)CCn2c(=S)[nH]c3ccccc3c2=O)c1,11%,30%,-8,9%,0.4%,-10,.
CN(C)c1ccc(Nc2ncnc3ccc(Br)cc23)cc1,1%,15%,3,?,0.9%,-16,-2.6
Cc1ccccc1OCc1ccc(C(=O)N2CCOCC2)o1,6%,15%,-2,-11%,.,-6,-0.6
O=C(CCNC(=O)c1ccccc1)NCCCc1ccccc1,8%,?,-6,.,-0.1%,9,.
COC(=O)C1=C(N)Oc2cc(C)n(Cc3cccnc3)c(=O)c2C1c1ccc(OC)c(OC)c1OC (stereo not given),-8%,-25%,-22,-2%,-0.7%,-6,3.7
COCC(C)n1c(SCc2ccc(OC)c(F)c2)nc2ccccc2c1=O (stereo not given),7%,-6%[15.4 µM],9,-7%,.,-28,-0.1

# Exported tab-delimited: entries from further up.
Structure	gsp antag	gsp ag	D2 PAM	Sfp PPTase inh	ClpP mod	TRPV1 PAM	Menin-MLL FL inh
CCc1nnc(NC(=O)c2ccncc2)s1	-6%	6%	11	8%	0.2%	-4	-2.5
COc1ccc(OC)c(NC(=O)CCn2c(=S)[nH]c3ccccc3c2=O)c1	11%	30%	-8	9%	0.4%	-10	.

# (listing goes on)
SMILES,gsp antag,gsp ag,D2 PAM,Sfp PPTase inh,ClpP mod,TRPV1 PAM,Menin-MLL FL inh
COc1ccc(NC(=O)C(=O)NCCN2CCN(C(=O)c3ccc(C)cc3)CC2)cc1,17%,-14%[15.4 µM],-22,12%,.,2,-2.9
O=C(COC(=O)c1ccc[nH]c1=O)NCCc1ccc(Cl)cc1Cl,-2%,?,4,13%,-1.5%,-10,6.9
CCCc1nnc(NC(=O)C23CC4CC(CC(C4)C2)C3)s1,11%,0%,-12,8%,0.4%,-9,0.3
CCn1cc(CN2CCC(n3nccc3NC(=O)c3ccccc3C)CC2)c(C)n1,4%,-2%,-15,0%,-4.5%,22,.
O=C(CN1CCN(c2ccccc2F)CC1)c1ccc(O)cc1O,10%,?,-20,10%,-3.1%,1,-0.6
Cc1onc(-c2c(Cl)cccc2Cl)c1C(O)c1ccc(F)cc1 (stereo not given),2%,-2%[15.4 µM],-4,18%,21%,12,0.8
CCCC(=O)Nc1c(O)c2ccccc2[nH]c1=O,1%,2%,1,-17%,-12%,17,-0.5
COc1cc(/C=N/NC(=O)c2nnn(-c3nonc3N)c2C(C)C)ccc1OCc1ccccc1,25µM*,-7%,-7,15%,?,24,.
O=c1[nH]c(=O)n(-c2ccc(F)cc2)c2c1C(C(F)(F)F)(C(F)(F)F)N=C(c1ccc(F)cc1)N2,?,11%[15.4 µM],-9,15%,-1.7%,19,1.2
CC(=O)c1c(C)[nH]c(C(=O)OCC(=O)N2CCN(S(=O)(=O)c3ccc(C)cc3)CC2)c1C,-36%,-43%[inhibitor],0,.,0.3%,29,.
CCCCN(C)C(=O)c1nc2ccccn2c1CNCCCn1ncc2ccccc21,1%,-5%,-37,11%,-5.3%,1,-0.3
O=C(O)c1cccc2c1C(=O)N(Cc1ccccc1)C2,-1%,-1%[15.4 µM],11,15%,-3.0%,5,1.9
CCn1cc(C(=O)Nc2ccc(OC)c(OC)c2)c2cc(OC)c(OC)cc2c1=O,17%,1%,4,23%,0.1%,12,0.0
Cc1nn(CC(O)COc2ccc3c(c2)CCC3)c(C)c1C (stereo not given),1%,7%,1,24%,0.2%,11,7.4
O=C(CN1CCCCC1)Nc1cccc(Cl)c1,5%,-25%,-4,18%,-0.4%,-2,-1.6
COC(=O)c1cn(CCC#N)nc1-c1ccc2ccccc2c1,-2%,-7%[15.4 µM],-18,9%,-1.8%,11,-0.6
CCN(c1ccc(NC(=O)COC(=O)c2ccc(C)c(S(=O)(=O)N3CCOCC3)c2)cc1)C(C)C,-4%,-4%,-2,-8%,-0.7%,-2,-0.5
CC(=O)c1cccc(NC(=O)N2CCCC2C(=O)NCc2ccccc2)c1 (stereo not given),6%,-34%[inhibitor],-4,4%,-2.1%,2,3.4
CN(C)c1ccc(C=c2c3ccccc3n3c2cc(-c2ccccc2)[n+]3C)cc1,?,?,-33,.,2.0%,.,.
Cc1ccc(NC(=O)CN(C)CC(=O)Nc2ccccc2Oc2ccccc2)cc1,-5%,-11%[15.4 µM],-2,?,.,6,-4.8
COc1ccc(CN(C)c2nc(-c3cccnc3)nc3ccccc23)cc1OC,.,.,.,7%,.,9,4.5
CC(C)CC(=O)N1CCC(O)(CS(=O)(=O)Cc2ccc(Cl)cc2)CC1,5%,-18%,-10,6%,-2.5%,-13,-2.5
NC1C=CC=C(C(=O)O)C1 (stereo not given),-11%,.,3,-20%,-3.1%,.,1.8
CCCSc1nnc(NC(=O)Nc2ccccc2)s1,-32%,27%,-9,7%,4.1%,-13,1.3
OCC1OC(n2cnc3c(/C=C(\O)c4ccccc4)ncnc32)C(O)C1O (stereo not given),2%,-26%,-12,.,-4.3%,.,.
# The results go on:
SMILES,gsp antag,gsp ag,D2 PAM,Sfp PPTase inh,ClpP mod,TRPV1 PAM,Menin-MLL FL inh
O=C(NC1C(=O)NNC1c1ccc(Cl)cc1)c1ccc(F)cc1 (stereo not given),-22%,-5%,-15,-2%,-0.2%,-6,1.1
COc1cccc(-c2cc(=O)c3cc(NC(=O)c4ccc(N(C)C)cc4)ccc3[nH]2)c1,10%,.,-6,5%&0%,-12%,-1,-4.6&0.1
NC(=O)C1CCCN(S(=O)(=O)c2ccccc2)C1 (stereo not given),4%,-3%,-1,10%,0.6%,2,0.2
COc1ccc(OC)c(C(=O)COC(=O)CNC(=O)c2ccccc2)c1,-2%,-10%[15.4 µM],-6,4%,.,7,0.3
CCc1c(C)[nH]n(-c2nc(-c3ccccc3)cs2)c1=O,-8%,-1%[15.4 µM],-7,5%,.,-8,-0.7
COc1ccc(NC(=O)c2ccco2)cc1NC(=O)c1ccc(Br)o1,-8%,-5%,-11,8%,-6.2%,-17,12
O=C(NCc1cccs1)c1cc(-c2ccccc2)nn1CC1CC(c2cccnc2)=NO1 (stereo not given),?,-6%,6,.,0.0%,.,.
Cc1noc(C)c1C(=O)Nc1cccc2ncccc12,5%,-11%[15.4 µM],-2,0%,.,-2,-5.3
Cc1ccc(S(=O)(=O)NC(=O)c2ccc(F)cc2)c(C)c1,-9%,2%,-14,17%,0.2%,2,-6.7
CCC(C)(C)n1nnnc1C(c1cc2cc(OC)c(OC)cc2[nH]c1=O)N1CCc2ccccc21 (stereo not given),-6%,24%,-3,-2%,-5.2%,8,0.9
Cc1cccc(Nc2c3c(nc4ccccc24)CCC3)c1,-5%,-5%[15.4 µM],-12,-4%,.,.,7.5
CCOC(=O)C/C(C)=N\Nc1nc(-c2ccccc2)cs1,8.9µM*,7%[15.4 µM],3,?,.,17,1.6
S=C(Nc1ccccc1)Nc1ccc(Br)cn1,7%,4%[15.4 µM],2,12%,.,3,-2.5
CCN(Cc1ccccc1)S(=O)(=O)c1cc(C(=O)NC2CCCCCC2)ccc1OC,-8%,-24%,-20,-14%,1.0%,0,.
O=C1c2ccccc2C(O)(Cc2ccccc2)N1CCCN1CCOCC1 (stereo not given),8%,-39%[inhibitor],-26,4%,-13%,-19,7.5
CCCCNC(=O)CCNS(=O)(=O)c1ccc(C)cc1,1%,8%,7,18%,-0.9%,-4,3.6
CC(=O)NC(=S)NNC(=O)c1ccc(Br)cc1,3%,33%,-10,-40%,.,3,1.6
